Screens from PubChem BioAssay.
CapD inh: blocks the Bacillus anthracis CapD enzyme; purified CapD enzyme, fluorescence intensity read-out; hits give low values; some hits fall short of the stated cut; z-score (test concentration not listed); 0.23% of 140,000 active; AID 492967;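 active means z-score under -4 in either of two replicates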;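 further: stock transfer was 100 nL into about 40 µL; score is relative to mean and spread of the plate; one replicate is shown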
AID504770: E. coli YBA685 growth inhibition, screen for V. cholerae RctB inhibitors; E. coli YBA685 rctB-dependent plasmid, OD600 growth, 3 h; hits give low values; 0.27% of 130,000 active; z-score (test concentration not listed);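 active means z-score under -2 on both plates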;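 further: wells of about 30 µL received 100 nL stock; score is relative to mean and SD of the test wells; the first replicate is given; strong numbers were not always called active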
Starred values were filed as active, the others as inactive; i = inactive; / = not tested or not shown; & = joins results of further samples. Random draw from the library (roughly 0.37% active in at least one column).

structure | CapD inh | AID504770
NS(=O)(=O)c1ccc(CNC(=O)c2ccccc2Oc2ccccc2)cc1 | 5.3 | -0.35
COC(=O)/C(=C(/O)CSc1nnc(-c2ccco2)n1Cc1ccccc1)c1nc2ccccc2[nH]1 | / | -0.45
O=C1CC(Cc2ccc(Cl)cc2)C(=O)N1Cc1ccccc1 (configuration not stated) | -0.16 | -0.5
N#Cc1ccc(-c2ccc(OC(=O)c3cccnc3)cc2)cc1 | 1.3 | -0.2
c1cncc(-c2nn3cnnc3s2)c1 | 0.085 | 0.25
O=C(Cc1n[nH]c(=O)c2ccccc12)OCCCCN1C(=O)c2ccccc2C1=O | / | -0.2
C=C1SC(Nc2ccc(F)c(Cl)c2)=NC1(CC)CC | 0.23 | -0.15
OC(COc1ccc(Cl)cc1)C(O)C(O)c1cnn(-c2ccccc2)n1 (configuration not stated) | / | -0.75
Cc1ccc(NC(=O)CCCSc2nc(-c3ccco3)cc(C(F)(F)F)n2)cc1 | 0.01 | -0.45
O=C(c1cccs1)N1N=C(c2ccccc2)CC1c1ccccc1[N+](=O)[O-] (configuration not stated) | -0.53 | /
CC(C)Cn1c(N)c(C(c2cccnc2)N2CCN(c3ccccc3)CC2)c(=O)[nH]c1=O (configuration not stated) | / | -1
CC(C)c1nc2ccc(Cl)cc2c2c1C(=O)N(C1CCN(Cc3cc4c(cc3Cl)OCO4)C1)C2=O (configuration not stated) | -0.61 | /
CCN(c1ccccc1)S(=O)(=O)c1cc(C(=O)N2CCCN(C)CC2)ccc1C | / | -0.45
O=C(CSc1ccc2c(c1)CCC2)N1CCNC1=O | / | -1.1
CC1=C(C(=O)Nc2ccc(Cl)cc2)C(c2ccncc2)C(C#N)=C(SCC(=O)Nc2ccc(C)c(Cl)c2)N1 (configuration not stated) | 11 | /
CCCCC1NC(=S)N(C2CCCCC2)C1=O (configuration not stated) | 0.33 | -0.8
CCOc1cc(C2C(C#N)=C(N)Oc3n[nH]c(-c4ccc([N+](=O)[O-])cc4)c32)ccc1OC (configuration not stated) | -1.1 | /
CSC1=NC(=Nc2cccc(C)c2)C2(CCCC2)N1c1ccc(C)cc1 | -0.48 | /
CC(C)CCNC(=O)C1CC(=O)N(c2ccccc2)C1 (configuration not stated) | / | -0.85
Cc1ccc(S(=O)(=O)NC(=O)NN2CCCCCC2)cc1 | -0.39&-0.03 | 1.9
O=C(OCc1c(F)cccc1Cl)c1cc[n+]([O-])cc1 | -0.75 | -0.45
O=C(c1ccc2c(=O)n(Cc3ccc4c(c3)OCO4)c(SCc3cccnc3)nc2c1)N1CCC2(CC1)OCCO2 | 0.6 | /
CC1=NN(c2cccc(C(=O)O)c2)C(=O)/C1=C/c1ccc(-c2cccc(Cl)c2C)o1 | -0.82 | -0.45
O=C(O)c1ccc(OCc2ccnc(Cl)c2)cc1 | -0.25 | /
N#Cc1ccc(/C=N/NC(=O)COc2ccccc2Cl)cc1 | 0.65 | /

A draw from above in order of heavy-atom count, smallest number first:
structure | CapD inh | AID504770
c1cncc(-c2nn3cnnc3s2)c1 | 0.085 | 0.25
C=C1SC(Nc2ccc(F)c(Cl)c2)=NC1(CC)CC | 0.23 | -0.15
Cc1ccc(S(=O)(=O)NC(=O)NN2CCCCCC2)cc1 | -0.39&-0.03 | 1.9
N#Cc1ccc(/C=N/NC(=O)COc2ccccc2Cl)cc1 | 0.65 | /
CC(C)Cn1c(N)c(C(c2cccnc2)N2CCN(c3ccccc3)CC2)c(=O)[nH]c1=O (configuration not stated) | / | -1

Additional results follow:
structure | CapD inh | AID504770
Cc1nc2ccccc2c2oc(C(=O)NC3CCCC3)cc12 | -0.6 | 0.05
Cc1ccc(S(=O)(=O)N2CCN(C(=O)COC(=O)/C=C/c3ccc(C)o3)CC2)c(C)c1 | / | -0.2
CC(C)(C)OC(=O)N1CCCN(C(=O)Nc2ccc(F)cc2F)CC1 | -0.14 | -0.35
COC(=O)c1ccccc1S(=O)(=O)N1CCC(C(=O)OCN2C(=O)c3ccccc3C2=O)CC1 | / | -0.25
COc1ccc(Cc2nnc(SC(C)C(=O)Nc3ccc4c(c3)OCO4)n2C)cc1 (configuration not stated) | / | -0.65
CCCC(C(=O)O)N1C(=O)/C(=C/c2ccccc2Cl)SC1=S (configuration not stated) | -0.41 | 0.2
N#CCCn1cc(C(=O)Cn2cc(C(F)(F)F)ccc2=O)c2ccccc21 | / | 0.05
COC(=O)C1CCN(C(=O)Nc2ccccc2)CC1 | 0.46 | 0.1
COc1cccc(CNC(=O)c2ccc(-n3nc(C(C)(C)C)cc3C(C)(C)C)cc2)c1 | 0.45 | /
O=C(Nc1nnc(-c2ccc3c(c2)CCCC3)o1)C1CC1 | / | 2.8
COc1cc(-c2nnc(SCCSC)o2)cc(OC)c1OC | / | -1.5
O=C1COc2ccc(C(=O)COC(=O)COc3ccc4c(c3)CCC4)cc2N1 | / | 1.3
S=C(NC1CC2C=CC1C2)N1CCOCC1 (configuration not stated) | 0.045 | /
CN(CC(=O)O)S(=O)(=O)c1ccc(Br)cc1 | -0.16 | -0.05
CN(Cc1cccs1)C(=O)c1cccc(C#N)c1 | / | -0.2
N#C/C(=C\NN1CCOCC1)S(=O)(=O)c1cc(C(F)(F)F)cc(C(F)(F)F)c1 | -0.21 | -0.25
NCCSC(=S)NC1CC1 | -0.4 | /
COc1ccc(CN2CN(C(C)C)CSC2=S)cc1 | / | -1.5
O=C(N/N=C/c1ccc(F)cc1)c1ccc(CN2CCOCC2)cc1 | / | 0.1
CSCCC(C(=O)NC1=NCCS1)N1C(=O)c2ccccc2C1=O (configuration not stated) | / | -1.6
O=C(COC(=O)C1CC(=O)N(Cc2ccco2)C1)Nc1cccc2nsnc12 (configuration not stated) | / | 0.55
CCOc1ccc(CCNC(=O)c2cc(C)[nH]n2)cc1OCC | -0.06 | 0.2
Cc1nc2ccccc2c(=O)n1-c1cccc(NC(=O)C2CC2)c1 | / | 1.6
CCCCn1c(=O)n(C)c(=O)c2c(C(F)(F)F)cc(C)nc21 | / | -0.35
CCOc1ccc(-n2c(SC(C)CC)nc3c(c2=O)SCC3)cc1 (configuration not stated) | -1.5 | 2.5

Copied from the list:
COC(=O)C1CCN(C(=O)Nc2ccccc2)CC1 | AID504770: 0.1
CSCCC(C(=O)NC1=NCCS1)N1C(=O)c2ccccc2C1=O (configuration not stated) | AID504770: -1.6
O=C(N/N=C/c1ccc(F)cc1)c1ccc(CN2CCOCC2)cc1 | AID504770: 0.1
CCCC(C(=O)O)N1C(=O)/C(=C/c2ccccc2Cl)SC1=S (configuration not stated) | AID504770: 0.2

Next part
structure | CapD inh | AID504770
COC(=O)c1ccc2c(c1)NC(=O)C1CCCN21 (configuration not stated) | 4.3 | -0.3
CCc1ccc(/C=C2/SC(=S)N(CCC(=O)O)C2=O)cc1 | -2.4 | /
Cc1cc(C)n2nc(Cc3ccccc3)nc2n1 | 0.055 | -0.55
COc1ccc(C2=NN(CCC(=O)NC3CC3)C(=O)CC2)cc1 | 2.8 | -0.05
O=C(Nc1cccnc1)OCCN1CCOC1=O | / | 2
O=C(O)CNS(=O)(=O)c1ccccc1C(F)(F)F | -0.12 | -0.05
CO[C@H]1O[C@H](COC(=O)c2ccccc2)[C@@H](O)[C@H](O)[C@H]1OC(=O)c1ccccc1 | 0.02 | -0.65
C=CCN1CC(O)=C(c2nc3ccccc3[nH]2)C1=N | -0.26 | -0.95
CC(C)(C)c1ccc(-c2nc3sc4c(c3c(=O)o2)CCCC4)cc1 | -0.24 | /
S=c1sc2c(N3CCCCC3)ncnc2n1-c1ccccc1 | -0.5 | /
N/C(=N\O)c1ccc(F)cc1 | / | -0.5
COc1ccccc1-c1nn(-c2ccc(C(F)(F)F)cn2)c(=O)o1 | 2.1 | -0.15
CC(=O)N1CCN(C(=O)CCc2nc3ccccc3c(=O)[nH]2)CC1 | / | 0
COC(=O)c1ccc2c(c1)no[n+]2[O-] | -2.5 | -1.8
COc1cc(SC)ccc1C(=O)N1CCCC(C)C1 (configuration not stated) | / | -0.15
Cc1oc2c(F)c(F)c(F)c(F)c2c1C(N)=O | 0.43 | 0
CCn1c(C)c(CCC(=O)NCCCc2ccccc2)c(=O)n2nc(-c3ccccc3OC)cc12 | -0.055 | 0.05
CC1Cc2cc(-c3nn(-c4ccccc4)cc3/C=c3\sc4nc(-c5cccs5)nn4c3=O)ccc2O1 (configuration not stated) | 0.28 | 0.8
CN1CCCC12NCCc1c2[nH]c2ccccc12 (configuration not stated) | -0.05 | /
CC1(C)NC(=O)N(CCSc2ccc(Cl)cc2)C1=O | -0.78 | -0.55
CC(=O)Oc1ccccc1OCC(=O)c1ccccc1 | 0.08 | -0.45
CC1(C)CC(=O)C(CC(=O)N2CCN(S(=O)(=O)c3ccccc3)CC2)C(=O)C1 | / | 0.7
COc1ccc(CN(Cc2ccncc2)C(=O)CCC(=O)O)cc1 | / | -1.1
CC(C)N=C(NS(=O)(=O)c1cccs1)c1ccccc1 | -0.65 | -1.2
CCOC(=O)C1=C(C)NC2=C(C(=O)c3ccccc32)C1c1cc(Br)ccc1OCC (configuration not stated) | -0.16 | /

Remaining list, next part.
structure | CapD inh | AID504770
CNc1sc(S(C)(=O)=O)nc1S(=O)(=O)c1ccc(C)cc1 | 0.64 | -2.3
Cc1cccc(CCCOCCOC(=O)N2CCC(O)(c3ccc(Cl)cc3)CC2)n1 | 0.56 | /
O=C(Nc1ccccc1CO)c1ccc(N2C(=O)C3C4C=CC(C4)C3C2=O)cc1 (configuration not stated) | -0.51 | -0.1
COc1ccccc1C1N(c2ccc(Cl)cc2)C(=O)N2CCCN12 (configuration not stated) | 0.89 | 0.5
O=C(OCCCCCCl)N1CCN(c2ccc(C(F)(F)F)cn2)CC1 | 3.8 | /
CN(Cc1ccccc1)C(=O)C1CCCN(Cc2cc(Br)ccc2O)C1 (configuration not stated) | -0.085 | -0.6
CC(=O)Oc1ccc2c(=O)c(-c3nc4ccccc4s3)coc2c1 | i | -0.55
COc1ccc(Cc2nnn(CC(=O)O)n2)cc1 | -1 | -0.8
CC(=O)c1ccc(NC(=O)CSC2=C(C#N)C(c3ccc4c(c3)OCO4)C3=C(CCCC3=O)N2)cc1 (configuration not stated) | 1.6 | /
CCOC(=O)c1cc2ccccc2n1C | 8.7 | 0.15
Cc1ccc(OCc2n[nH]c(=S)n2-c2ccccc2)cc1C | 0.41 | 0.45
CC(C)n1cc(-c2cc(C(=O)NCCN3CCOCC3)ccc2[N+](=O)[O-])cn1 | -0.96 | /
N#CC1=C(N)SC(N)=C(C#N)C1c1cc2c(cc1Cl)OCO2 | / | -0.1
N/C(=N\O)C1(c2ccc(Cl)cc2Cl)CC1 | -0.15 | -1.1
O=C(C1CCCCC1)N1CCN(c2nnc(-c3ccccc3)c3ccccc23)CC1 | -0.91 | 1.8
Cc1nn(-c2ccccc2)nc1CNS(C)(=O)=O | 0 | -0.65
COc1ccc(NC(=O)C2CCN(Cc3cnn(-c4ccccc4)c3-n3cccc3)CC2)cc1OC | -0.68 | -0.8
COc1ccccc1-c1nc(-c2cccc(Br)c2)no1 | 1.1 | 0.15
CCCN(CCC)c1c(Cl)c(Cl)nc(C(=O)O)c1Cl | / | 1
COc1ccc(-n2cnc3cc(NCc4ccccc4O)ccc32)cc1 | 42 | 2.6
COCCn1c(N)c(C(=O)c2cccc(S(=O)(=O)N3CCCCCC3)c2)c(=O)[nH]c1=O | / | 2.1
Cc1ccc(S(=O)(=O)NCCC(=O)NC2CCCCC2)cc1 | 0.14 | 0.95
c1ccc(-n2c(SCc3cccc4ccccc34)nnc2-c2ccco2)cc1 | -0.13 | /
CCN(CC)Cc1c(O)ccc2c(C)cc(=O)oc12 | 88 | 1.3
CCOC(=O)c1cc(=O)c2ccc(OC(=O)c3sc4ccccc4c3Cl)cc2o1 | -0.18 | /

The listing continues.
structure | CapD inh | AID504770
Cc1c(COC(=O)c2ccccc2)sc2ccccc12 | -0.085 | 1
Cc1onc(-c2c(F)cccc2Cl)c1C(=O)N(CCO)CCO | / | 1.5
CCOC(=O)c1c(NC(C)=O)c2c3c(sc2n1Cc1ccccc1Cl)CCCC3 | -0.2 | -0.05
COC(=O)c1sc(-c2ccc(Cl)cc2)cc1NC(=O)c1cc(C)nn1C | 0.65 | -0.2
NC(=O)c1ccccc1OCCCN1CCN(c2ccccc2)CC1 | 0.31 | 0
COc1ccc(/C=C2\SC(=Nc3cc(C)cc(C)c3)NC2=O)c(OC)c1 | -0.46 | /
CCCc1nc2c(sc3nc4c(cc32)COC(C)(C)C4)c(=O)n1N | 12 | 0.6
CNC(=O)COc1ccc(Nc2nnc(-c3ccc(C)cc3)c3ccccc23)cc1 | 0.52 | -0.15
CCCCNC(=O)c1ccc(NC(C)=O)cc1 | / | 0.35
Oc1ccc(CCc2n[nH]c(=S)n2CCc2ccccc2)cc1 | 1.1 | 0.5
Oc1ccc2c(c1)[nH]c1ccccc12 | / | -2.4
CCN1C(=O)C2(c3ccccc31)c1c(oc3ccccc3c1=O)C(=O)N2CCCOC (configuration not stated) | -0.11 | 0.3
COc1ccc(/C=C2\C=C(c3ccccc3)N(c3cccc(Cl)c3Cl)C2=O)cc1Br | -0.42 | /
Cc1ccc(NC(=O)c2cc3ccccc3c([N+]#N)c2[O-])cc1 | -0.56 | -0.7
O=C(/C=C/c1ccccc1)N1CCCCC1c1cccnc1 (configuration not stated) | -1 | 0.1
Cc1ccccc1-c1nnc2s/c(=C\c3ccccc3)c(=O)n12 | 0.63 | 0.9
Cc1cc(C)nc(Sc2ccc(NC(=O)c3ccc(S(C)(=O)=O)cc3)cc2)n1 | -0.19 | /
COc1ccc(S(=O)(=O)N(C2CC2)C2CCN(C(C)=O)CC2)cc1 | -0.54 | /
Oc1ccc(-n2nnnc2SCc2ccc(OC(F)(F)F)cc2)cc1 | -0.1 | /
NC(=O)Cc1csc(N)n1 | / | -0.15
CCNC(=O)C1CCCN(c2nnc(N3CCCC3=O)s2)C1 (configuration not stated) | -0.33 | -0.95
O=C1NC(=S)NC(=O)C1=CN1CCCc2ccccc21 | / | -0.75
COc1ccc(C2(O)C[N+]3=C(CCCCC3)N2c2ccc(C)cc2)cc1 (configuration not stated) | -0.22 | /
